Assay outcomes (PubChem BioAssay)
RGS16-Gao: regulators of human RGS16-Galphao interaction. O15492+P09471. bead-based flow cytometry RGS16-Galphao binding, fluorescence; actives lie on both sides. binding response (% of control), % at 10 µM. 220,000 tested, 0.38% active. AID 1441;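 active means below 25% or above 175%, edge rows of some plates excepted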;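 further: Galphao activated by GDP with aluminum fluoride before binding; 100% = wells without compound and 0% = beads without RGS; some results beyond the cut were filed as inactive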
GALR2 agonist: GALR2 (human) receptor agonism | 140,000 tested, 0.48% active | O43603 | AID 803 | GALR2-expressing cells, agonist activation read-out | activation, %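 (tested at 5 µM)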;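 active means above mean plus 3 SD of all compounds, about 5% in these data, not always enough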;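 further: 0% = vehicle buffer wells and 100% = reference agonist at full effect; tested in CHO reporter cells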
HSV replic up: increases HSV replication in cells | HSV replication augmentation in cells, fold increase | maximum fold increase | 220,000 tested, 0.005% active | AID 1956;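 active means peak rise of 1.5-fold or more in the series; tested in PC3 cells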;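 further: first round at 10 µM; read as green reporter fluorescence; hits show the peak of a series up to 25 µM; 1 = signal of infected wells without compound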
PKD1 inh: blocks activity of human protein kinase D1. Q15139. PKD1 kinase fluorescence polarization assay. inhibition, %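 (about 10 µM by stock and volumes)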. 200,000 tested, 0.056% active. AID 797;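 active means inhibition of 50% or more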;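 further: controls were vehicle for no effect and a reference inhibitor for full effect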
Target sequence (Q15139 whole entry, looked up): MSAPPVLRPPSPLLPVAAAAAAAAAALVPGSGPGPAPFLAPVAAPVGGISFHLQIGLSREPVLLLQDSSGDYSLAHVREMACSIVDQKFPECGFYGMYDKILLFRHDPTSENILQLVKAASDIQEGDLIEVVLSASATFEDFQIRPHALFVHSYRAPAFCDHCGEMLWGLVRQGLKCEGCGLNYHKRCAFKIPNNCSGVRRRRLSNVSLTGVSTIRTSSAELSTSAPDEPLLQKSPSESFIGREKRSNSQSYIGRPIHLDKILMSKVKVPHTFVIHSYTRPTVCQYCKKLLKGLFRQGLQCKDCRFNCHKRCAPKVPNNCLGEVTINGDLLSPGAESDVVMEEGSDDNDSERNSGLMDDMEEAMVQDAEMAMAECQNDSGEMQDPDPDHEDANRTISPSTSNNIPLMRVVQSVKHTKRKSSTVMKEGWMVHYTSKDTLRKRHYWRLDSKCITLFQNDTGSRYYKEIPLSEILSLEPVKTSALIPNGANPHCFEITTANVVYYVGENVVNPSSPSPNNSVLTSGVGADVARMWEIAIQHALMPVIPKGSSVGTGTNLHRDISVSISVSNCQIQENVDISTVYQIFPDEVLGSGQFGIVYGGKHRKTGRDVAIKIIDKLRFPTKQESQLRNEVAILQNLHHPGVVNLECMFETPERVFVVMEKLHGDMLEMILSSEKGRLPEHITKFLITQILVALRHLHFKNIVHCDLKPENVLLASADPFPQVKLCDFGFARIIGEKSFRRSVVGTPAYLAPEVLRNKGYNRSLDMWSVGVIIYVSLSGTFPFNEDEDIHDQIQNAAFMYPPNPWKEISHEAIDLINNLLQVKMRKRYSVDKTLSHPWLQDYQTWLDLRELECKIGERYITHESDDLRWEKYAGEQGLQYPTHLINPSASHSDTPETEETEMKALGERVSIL
Insulin prom inh: TRM-6 insulin promoter activity inhibition; TRM-6 cells (human fetal islet line), insulin promoter-eGFP reporter, imaging; reporter expression induced with tamoxifen; 130,000 tested, 0.9% active; AID 1273; inhibition, % at 2 µM;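 active means inhibition above the mean plus 3 SD, with well images judged a real hit on visual review, cut at about 60% in these data, passing the limit was not always enough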
Insulin prom inh cell count: second read-out of Insulin prom inh, no call of its own (marks repeat the call); normalized cell count, %; measured here: cell count, toxicity; reference of the scale not given here;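 cells exposed to compound for 48 h; stained nuclei by imaging scaled within each plate; lower means fewer cells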
HSV replic up primary fold: recorded beside HSV replic up, whose call it bears; fold increase; compound at 10 µM; measured here: primary screen fold increase 10 uM; tested in PC3 cells;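 GFP signal in the first replicate; 1 = infected wells without compound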
The depositor's hits bear a star; i = inactive; . = not tested or not shown. Not a hit list; 1.3% or so of the library scored in one or more.

SMILES	RGS16-Gao	GALR2 agonist	HSV replic up	HSV replic up primary fold	PKD1 inh	Insulin prom inh	Insulin prom inh cell count
CN1CCN(c2ccc(Cl)cc2NS(=O)(=O)c2ccccc2Cl)CC1	99	-3.6	i	0.98	-8	-64	114
COC(=O)c1ccc(CSc2nc3ccc(C)cc3[nH]2)o1	105	-2.1	i	0.95	0	.	.
Cc1cc(NC(=O)CSc2ccc(-c3ccc4c(c3)OCO4)nn2)no1	97	.	i	1	-6	.	.
CC(=O)c1ccc(NC(=S)N2C(C)CCCC2C)cc1 (configuration not stated)	102	-3.0	i	0.97	3	-17	114
C/C(CC(=O)Nc1ccc(Cl)c(Cl)c1)=N\NC(=O)Cc1ccccc1	102	0.0	i	0.98	-6	-10	111
c1ccc(Oc2ccc(-c3ccnc4nc(N5CCN(c6ccccc6)CC5)nn34)cc2)cc1	103	-1.5	i	0.85	-4	6	74
O=C(CSc1nnc2c(n1)[nH]c1ccccc12)Nc1ccc2c(c1)OCO2	93	-2.3	i	1.2	-1	-20	88
COc1ccc(S(=O)(=O)N(C)c2ccc(C(=O)N3CCC(C(N)=O)CC3)cc2)cc1	96	-1.8	i	0.96	-4	5	141
COc1ccc(NC(=O)CSc2c(C)n[nH]c2C)cc1	103	-1.6	i	0.72	-3	0	136
CC(C)(C)c1ccc(OC(=O)c2ccccc2)cc1	101	.	i	1.1	.	.	.
COc1cc(/C=N/NC(=O)CC2(C)OCCCO2)ccc1OCc1ccccc1	94	-1.1	i	0.92	-3	-11	104
CCOC(=O)c1c(NC(=S)Nc2cccnc2)sc(C)c1C	103	.	i	0.97	2	.	.

Sorted by value in HSV replic up primary fold (smallest number first): some entries from above.
canonical_smiles,RGS16-Gao,GALR2 agonist,HSV replic up,HSV replic up primary fold,PKD1 inh
COC(=O)c1ccc(CSc2nc3ccc(C)cc3[nH]2)o1,105,-2.1,i,0.95,0
CN1CCN(c2ccc(Cl)cc2NS(=O)(=O)c2ccccc2Cl)CC1,99,-3.6,i,0.98,-8
CC(C)(C)c1ccc(OC(=O)c2ccccc2)cc1,101,.,i,1.1,.

Next section.
SMILES	RGS16-Gao	GALR2 agonist	HSV replic up	HSV replic up primary fold	PKD1 inh	Insulin prom inh	Insulin prom inh cell count
COc1ccccc1NC(=O)c1nn(C)cc1Br	90	-1.6	i	0.88	-6	-29	114
CSc1ccc(C#N)cc1NC(=O)c1ccc(Cl)cc1	95	-3.5	i	0.96	-3	-22	93
Cc1cc(C)c(O)c(-c2cc(C(=O)NCCc3ccc(S(N)(=O)=O)cc3)[nH]n2)c1	99	.	i	0.83	.	.	.
CCn1c(-c2ccoc2C)n[nH]c1=S	100	-1.6	i	1	0	-7	138
COC(=O)c1sccc1NC(=S)Nc1cccc(F)c1	105	.	i	1.1	.	.	.
CC(C)NC(=O)c1ccccc1N(Cc1ccccc1)S(C)(=O)=O	103	-1.9	i	1	-5	15	75
Cc1ccc(N=Nc2c(C)[nH]n(C(N)=S)c2=O)cc1	100	.	i	0.98	1	56	138
CC(C1CC1)N(Cc1ccccc1)C(=O)NC(=O)c1ccccc1 (configuration not stated)	101	.	i	1	9	.	.
O=C(Nc1nc(-c2cccs2)c(-c2cccs2)s1)C1CCCC1	96	-1.8	i	1.1	-1	-34	139
CCCOc1ccc(C(=O)NNC(=S)NC(C)=O)cc1	86	-1.7	i	1	3	.	.
COc1cc(C(=O)NCc2ccco2)cc(OC)c1OC	99	-1.2	i	1.1	-5	-2	199
COC(=O)CN1C2=NCCCN2c2ccccc21	111	.	i	0.94	4	.	.
COc1ccc(N2CCN(S(=O)(=O)c3cnc[nH]3)CC2)cc1	100	.	i	0.92	.	.	.
Cc1cc(C)cc(NC(=O)CSc2nc3[nH]ncc3c(=O)[nH]2)c1	96	0.0	i	0.87	-3	20	53
COc1ccc(C2OC(=O)CC2C(=O)NC2CCCCCC2)cc1OC (configuration not stated)	98	-2.9	i	1	-11	.	.
O=C(CCn1nnc2ccccc2c1=O)N[C@@H](Cc1c[nH]c2ccccc12)C(=O)O	100	.	i	1.1	.	.	.
CCCC1Cc2c(sc3nc(SC)nc(N)c23)CO1 (configuration not stated)	103	0.1	i	1	-4	0	92
CC(Sc1nnc(N)s1)C(=O)Nc1ccc(N2CCOCC2)cc1 (configuration not stated)	93	-1.6	i	0.92	-7	-8	84
C=CCn1c(SCC(=O)NC23CC4CC(CC(C4)C2)C3)nc(O)cc1=O	106	-1.4	i	0.88	-2	16	133
CCCCNC(=O)N(O)C1N(/N=C/c2cccnc2)C(=S)SC1(C)C (configuration not stated)	114	.	i	1	.	.	.
CC1(C)CC(N=Cc2c(O)n(Cc3ccc4c(c3)OCO4)c(=O)c3ccccc23)CC(C)(C)N1	100	.	i	0.58	0	.	.
O=C(C[N+]1(CC#Cc2ccccc2)CCCCC1)c1ccc(Cl)cc1	94	.	i	1.1	-5	-59	125
COC(=O)c1ccccc1NC(=O)Cn1cnc2cc(C)c(C)cc21	100	-0.5	i	0.84	-4	.	.
Nc1ccnn1Cc1ccncc1	100	.	i	0.83	-3	.	.
Cc1ccc(C2=[N+]([O-])C(C)N(O)C2(C)C)o1 (configuration not stated)	91	-2.2	i	0.93	3	21	111
COc1ccc(N2C(=O)[C@@H]3[C@H](C2=O)[C@H]2c4ccccc4C=CN2[C@@H]3C(=O)Nc2ccccc2)cc1	101	-1.9	i	0.96	-11	-6	56
Cc1cccnc1Sc1c([N+](=O)[O-])ncn1C	105	-1.8	i	1	-7	3	85
CCN1CCN(c2c(Cl)cccc2NC(=O)c2ccc([N+](=O)[O-])cc2)CC1	100	.	i	0.99	1	-37	93
CC(=O)c1ccc(N(C(=O)c2ccco2)C(C(=O)NC2CCCC2)c2ccc(N3CCOCC3)cc2)cc1 (configuration not stated)	101	.	i	0.99	1	-25	84
CC(=O)Nc1ccc(S(=O)(=O)N(C)c2ccc(OCC(=O)OCC(=O)N3CCCCC3)cc2)cc1	106	.	i	0.91	-4	-8	111
Cc1ccc(-n2c(SCC(=O)NC3CCS(=O)(=O)C3)nc3ccccc3c2=O)cc1 (configuration not stated)	102	.	i	0.79	-1	.	.
Cn1c(=O)[nH]c(=O)c2c1nc(CN1CCN(c3cccc(Cl)c3)CC1)n2CCN1CCOCC1	104	0.6	i	0.96	-8	61	111
C/C(=N\NC(=O)c1ccc(CN2CCOCC2)cc1)c1ccc([N+](=O)[O-])cc1	102	0.7	i	0.91	-1	-3	99
CCOc1ncccc1C(=O)N(C)CC(=O)Nc1ccccc1SC	136	-1.7	i	0.98	-3	.	.
Cc1ccc(SC(=O)COc2ccc(C)c(C)c2)cc1	101	-1.2	i	1.1	2	8	191
CC1(C)CC(=O)C(C=NCCc2ccc(S(N)(=O)=O)cc2)=C(O)C1	102	-0.3	i	0.84	1	18	72
CC1S/C(=C(\C#N)C(N)=O)N(c2ccc(F)cc2)C1=O (configuration not stated)	114	-2.4	i	1.1	11	.	.
CSc1ccc(/C=C(\C#N)C(=O)Nc2cccc(C)c2)cc1	102	2.8	i	1	4	.	.
CC(=O)c1cc2c(cc1NC(=O)CCc1ccccc1)OCO2	89	1.3	i	0.92	-10	.	.
COc1cccc2[nH]c3c(N4CCCCC4)ncnc3c12	113	-0.8	i	1.1	-1	-43	100
CN1CCN(c2ccc(NS(=O)(=O)c3ccc(Cl)cc3)cn2)CC1	100	.	i	1	3	-86	132
Cc1csc(SCC(=O)Nc2nc(-c3ccccc3)cs2)n1	106	-0.6	i	1	-12	47	128
O=C(Cn1ccc2ccccc2c1=O)NCCC(=O)Nc1ccc2c(c1)OCCO2	102	-1.1	i	0.87	-6	.	.
CC(=O)Nc1cccc(NC(=O)CSc2nnnn2C)c1	99	5.3	i	0.76	-5	29	156
Cc1ccc2cn[nH]c2c1NC(N)=S	106	.	i	1.1	2	.	.
Cc1nnc(SCC(=O)NC2CCCCC2)n(N)c1=O	103	-1.7	i	1.1	3	17	65
O=C(Cc1ccccc1)NC1CCN(S(=O)(=O)c2cccc(F)c2)CC1	35	-0.8	i	0.92	-3	.	.
Cc1nnc(NC(=O)C2c3ccccc3Oc3ccccc32)s1	101	-1.9	i	0.93	-2	-19	148
CCC1=NN(C(=O)Cc2ccc(OC)c(OC)c2)C(O)(C(F)(F)F)C1 (configuration not stated)	100	-1.1	i	0.94	-8	23	99
CN(C)S(=O)(=O)c1cccc(NC(=S)NC2CCCCC2)c1	102	.	i	0.88	-8	.	.
Cc1ccc(S(=O)(=O)/N=C(\CCl)N2CCOCC2)cc1	108	-1.9	i	0.87	-5	-129	96
CCN(CC)C(=O)CSc1nc(-c2ccc(C)cc2)nc2c1COC(C)(C)C2	90	-0.7	i	0.99	-6	.	.
COc1ccc(N(CC(=O)NCc2cccnc2)S(=O)(=O)c2ccc(C)c([N+](=O)[O-])c2)cc1	106	.	i	0.93	2	-10	174
COc1ccc2nc(NC(=O)CCc3nc(-c4ccccc4F)no3)sc2c1	99	-1.3	i	0.99	-9	21	91
Cc1ccc(S(=O)(=O)Nc2ccc(-c3nnc(SCC#N)n3C)cc2)cc1	50	-2.5	i	0.9	8	0	74
CCCCOc1ccc(C(=O)N/N=C/c2cn[nH]c2-c2ccc(OC)c(OC)c2)cc1	112	-0.2	i	0.84	7	-20	61
COc1ccc2cc(C(=O)Nc3c(C)n(C)n(-c4ccccc4)c3=O)sc(=O)c2c1OC	122	.	.	.	-1	.	.
COc1cc(NC(=O)CSc2ncccc2C(=O)OC(C)C)cc(OC)c1	94	-0.8	i	1	-11	.	.
O=C(Nc1ccc(C(F)(F)F)cn1)Nc1cccs1	102	.	i	1.2	.	.	.
O=C(CCn1cnnn1)Nc1cccc(F)c1	110	.	i	0.9	-6	13	90
Going on with the list:
SMILES	RGS16-Gao	GALR2 agonist	HSV replic up	HSV replic up primary fold	PKD1 inh	Insulin prom inh	Insulin prom inh cell count
COc1ccccc1-c1coc2cc(OCC(=O)OCc3ccccc3)ccc2c1=O	85	-0.7	i	1	-9	.	.
COc1ccc(C(=O)CSc2ccc(-c3ccccc3)nn2)cc1	47	0.3	i	1.1	-6	.	.
CC1CCCCN1CC(=O)Nc1ccccc1Sc1ccccc1 (configuration not stated)	103	-1.3	i	0.94	-6	12	106
CC1CCCC/C1=N\NC(=S)NCCc1ccccc1 (configuration not stated)	93	.	i	0.97	0	.	.
CC1=NN(C(C)C)C(=O)C1	105	-0.5	i	0.98	-3	19	121
O=C(Nc1ccccc1)Nc1cccc2cccnc12	108	-3.5	i	1.1	1	46	112
CCN(CC)C(=O)CCNS(=O)(=O)c1ccc(C)cc1	100	-1.8	i	1	-6	-11	125
O=C(COC(=O)/C=C/c1ccco1)Nc1ncc(C(F)(F)F)cc1Cl	109	-1.6	i	1.3	-2	.	.
CCOC(=O)C1(Cc2cccc(OC)c2)CCN(Cc2cccn2-c2ccccn2)CC1	101	.	i	0.98	4	.	.
Cc1ccc(Cl)cc1NC(=O)CC1NC2CCCCC2NC1=O (configuration not stated)	97	.	i	1.1	-10	.	.
Cc1nonc1OCCNC(=O)C12CC3CC(CC(C3)C1)C2	99	-1.3	i	1	-12	38	138
O=C1C2CCCCC2C(=O)N1c1ccc(NC2CCCCC2)c([N+](=O)[O-])c1 (configuration not stated)	95	-0.3	i	0.91	-6	11	138

One compound at a time, as listed above. Screens in order: RGS16-Gao	GALR2 agonist	HSV replic up	HSV replic up primary fold	PKD1 inh	Insulin prom inh	Insulin prom inh cell count
CCN(CC)C(=O)CCNS(=O)(=O)c1ccc(C)cc1 as listed: 100	-1.8	i	1	-6	-11	125
O=C(COC(=O)/C=C/c1ccco1)Nc1ncc(C(F)(F)F)cc1Cl as listed: 109	-1.6	i	1.3	-2	.	.
CCOC(=O)C1(Cc2cccc(OC)c2)CCN(Cc2cccn2-c2ccccn2)CC1 as listed: 101	.	i	0.98	4	.	.
O=C(Nc1ccccc1)Nc1cccc2cccnc12 as listed: 108	-3.5	i	1.1	1	46	112

Next part
SMILES	RGS16-Gao	GALR2 agonist	HSV replic up	HSV replic up primary fold	PKD1 inh	Insulin prom inh	Insulin prom inh cell count
COc1cccc(NC(=O)COC(=O)c2ccccc2F)c1	105	-0.7	i	1.1	-2	.	.
NCCNc1ccc([N+](=O)[O-])cc1	103	.	i	1.4	.	.	.
COc1cc(C(C)=O)ccc1Oc1ncnc2c1cnn2-c1ccc(F)cc1	101	-0.5	i	0.93	-6	.	.
O=C(c1ccccn1)N1CCN(S(=O)(=O)c2ccccc2)CC1	97	.	i	0.85	-7	.	.
CCc1ccccc1N(CC(=O)N/N=C/c1ccc(OC(=O)OC)c(OC)c1)S(C)(=O)=O	101	-2.6	i	0.92	-1	23	79
CC1(C)C2CCC(C2)C1(C)NC(=O)CN1CCN(Cc2ccccc2)CC1 (configuration not stated)	105	.	i	1	8	.	.
CCN(CC)C(=O)CS(=O)(=O)CC(=O)Nc1cc(OCCOC)c(Cl)cc1Cl	95	.	i	0.91	0	.	.
CC(C)(C)NC(=O)Cc1ccc(S(=O)(=O)N2CCCC2)s1	89	-1.5	i	0.9	-2	-31	144
